# Runt-CBFb FRET: inhibitors of human RUNX1 Runt domain binding to CBFb; Cerulean-Runt/Venus-CBFb FRET ratio 530/480, 1 h; inhibition, % at 20 µM; 220,000 compounds, 0.46% hits; AID 1496;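 active means inhibition over about 50% at 20 µM in the single-dose screen, limit read from the data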;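 further: 0% = DMSO wells and 100% = excess unlabeled CBFb competitor control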
#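 test system = Cerulean-Runt domain fusion protein, energy donor | probe or stimulus = Venus-CBFb binding partner, 100 nM | incubation = two 1 h room-temperature incubations shielded from light | detection = fluorescence energy transfer, 422 nm excitation, 530/480 nm emission | measure = loss of energy transfer signal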
# KLK5 inh: blocks human kallikrein 5 protease activity; recombinant hK5, fluorogenic AMC substrate cleavage; inhibition, % at 5 µM; 210,000 compounds, 0.59% hits; AID 873;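 active means inhibition of 40% or more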;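 further: 0% = enzyme controls without compound and 100% = no-enzyme blanks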
# Target sequence (Q9Y337 67-293 limits assumed): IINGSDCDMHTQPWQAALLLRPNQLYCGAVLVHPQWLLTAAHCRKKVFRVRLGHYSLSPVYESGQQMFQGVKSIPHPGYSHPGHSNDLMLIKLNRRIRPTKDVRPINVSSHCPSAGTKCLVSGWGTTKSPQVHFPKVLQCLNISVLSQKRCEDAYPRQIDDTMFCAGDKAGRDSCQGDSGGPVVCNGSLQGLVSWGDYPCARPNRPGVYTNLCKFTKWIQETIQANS
# 14-3-3 Bad inh: disrupts binding of bovine 14-3-3 zeta to phospho-Bad peptide. P63103. TR-FRET 14-3-3zeta/Dy647-pBad peptide displacement, 1 h. inhibition, % at 21.7 µM. 220,000 compounds, 0.71% hits;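 active means inhibition above about 70%, limit read from the data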;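 further: 0% = full 14-3-3 plus peptide FRET controls and 100% = background without 14-3-3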
# Target sequence (P63103 whole entry, looked up): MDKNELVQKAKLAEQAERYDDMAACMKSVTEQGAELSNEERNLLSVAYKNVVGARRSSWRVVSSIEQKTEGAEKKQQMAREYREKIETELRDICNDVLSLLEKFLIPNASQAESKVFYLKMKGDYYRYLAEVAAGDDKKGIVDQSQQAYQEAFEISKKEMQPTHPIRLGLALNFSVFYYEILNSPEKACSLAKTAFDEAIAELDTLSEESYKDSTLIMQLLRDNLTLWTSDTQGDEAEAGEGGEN
# Thrombin inh: thrombin (human) inhibition. AID 1046. P00734. inhibition, % at 5 µM. 220,000 compounds, 0.26% hits. alpha-thrombin, Boc-VPR-AMC fluorogenic substrate cleavage;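 active means inhibition at or above 40%; inactive means inhibition below 40%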;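 further: 0% = enzyme with no compound and 100% = wells without enzyme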
#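 System: Human alpha-thrombin protein | Medium: pH 7.5 Tris (50 mM) with NaCl 150 mM, Tween 20 0.05% | Times: Enzyme reaction carried out at room temperature | Detection: AMC fluorescence, 355/460 nm | Evaluation: Percent inhibition scaled between no-compound controls and no-enzyme blanks | Benchmarks: Enzyme without compound as high, wells lacking enzyme as low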
# Wee1 degr inh: inhibitors of human Wee1 degradation | P30291 | reporter increase, % at 5 µM | 220,000 compounds, 1.2% hits | HeLa Luc-Wee1K328M stability, luciferase luminescence; 100% = proteasome inhibitor MG132 effect;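 active means activation above the mean of all tested compounds plus 3 SD, set per screening run, cut at about 8.8% in these data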;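 further: cells exposed to compound for 20 h before luminescence read; 0% = DMSO alone and 100% = MG132 at 30 µM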
# Target sequence (P30291 whole entry K328M): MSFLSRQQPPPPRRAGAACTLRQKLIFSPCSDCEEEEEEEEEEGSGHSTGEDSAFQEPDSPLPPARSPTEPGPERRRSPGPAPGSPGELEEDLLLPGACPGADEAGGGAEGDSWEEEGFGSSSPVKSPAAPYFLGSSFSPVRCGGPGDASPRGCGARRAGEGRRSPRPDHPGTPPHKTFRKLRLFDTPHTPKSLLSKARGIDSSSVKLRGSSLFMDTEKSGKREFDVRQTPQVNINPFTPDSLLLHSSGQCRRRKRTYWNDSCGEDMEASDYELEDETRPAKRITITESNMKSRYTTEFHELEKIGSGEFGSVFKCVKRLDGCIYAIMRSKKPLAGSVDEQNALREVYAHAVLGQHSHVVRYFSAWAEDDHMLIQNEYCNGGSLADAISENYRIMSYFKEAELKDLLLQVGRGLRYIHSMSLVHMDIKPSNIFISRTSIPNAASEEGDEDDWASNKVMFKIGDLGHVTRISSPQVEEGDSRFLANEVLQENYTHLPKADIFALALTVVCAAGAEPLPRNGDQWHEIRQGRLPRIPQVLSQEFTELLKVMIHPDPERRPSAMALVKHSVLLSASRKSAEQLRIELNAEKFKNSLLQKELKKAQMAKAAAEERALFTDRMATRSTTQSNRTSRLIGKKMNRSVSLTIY
# Hck Nef HTS: human Hck-Nef kinase inhibition. P08631. Recombinant Hck-YEEI plus Nef, Z-Lyte FRET kinase assay. inhibition, % at 20 µM. 220,000 compounds, 0.68% hits. AID 463187;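 active means Hck-Nef kinase inhibition above about 50%, limit read from the data; inactive means inhibition below that limit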;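 further: 0% = DMSO with Hck plus Nef and 100% = Hck alone without Nef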
# Runt-SMMHC FRET: Runt domain-CBFb-SMMHC interaction inhibition. Q01196+Q13951. Cerulean-Runt/Venus-CBFb-SMMHC FRET ratio 530/480, 1 h. inhibition, % at 20 µM. 220,000 compounds, 0.74% hits. AID 1434;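 active means mean inhibition across duplicate retests at 20 µM reaching about 50%, limit read from the data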;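 further: 0% = DMSO wells and 100% = wells with excess untagged CBFb-SMMHC; inhibitors lower the FRET ratio by blocking Runt binding to CBFb-SMMHC; some results filed as inactive read as strong as hits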
# An asterisk follows results filed as active; x = not tested or not shown; & = joins results of further samples; [ ] = remark or other dose. Some of the compounds tested (hit frequency here may not be typical).
1. Cc1cc(=O)oc(C)c1C(=O)NCC1CCCO1 (stereo unspecified)
2. CC(C)Sc1nc2sc3c(c2c2nnc(SCC(=O)NCc4ccco4)n12)CCCC3
3. N#Cc1ccc(NC(=O)C2CC(c3ccc(F)cc3)=NO2)cc1 (stereo unspecified)
4. Cc1cc(-c2csc(NC(=O)c3ccc(C#N)cc3)n2)c(C)n1Cc1ccco1
5. Cc1ccc(-c2nc(CN(C)C3CCOC3)c(C)o2)s1 (stereo unspecified)

Assay by compound | 1 | 2 | 3 | 4 | 5
Runt-CBFb FRET | 0 | 6 | 2 | 6 | -1
KLK5 inh | -17 | -13 | -17 | -19 | 0
14-3-3 Bad inh | -6 | -22 | 6 | -9 | -9
Thrombin inh | -7 | -6 | 0 | -12 | 4
Wee1 degr inh | -1 | 1 | 0 | 0 | 0
Hck Nef HTS | 7 | 5 | 1 | 8 | 16
Runt-SMMHC FRET | -1 | -11 | 1 | -25 | 2

6. O=C(NCc1ccco1)c1nc2nc(-c3cccs3)cc(C(F)(F)F)n2n1
7. COC(=O)C1=NN(c2cccc3ccccc23)C2C(=O)N(c3ccccc3OC)C(=O)C12 (stereo unspecified)
8. COc1cc(NC(=O)c2ccc(Br)o2)c(C(=O)O)cc1OC
9. CC(=O)c1ccc(NC(=O)c2cnsn2)cc1
10. Nc1nc(-c2cccnc2)nn1S(=O)(=O)c1ccccc1

Assay by compound | 6 | 7 | 8 | 9 | 10
Runt-CBFb FRET | 8 | -4 | 2 | 5 | x
KLK5 inh | -295 | -4 | -14 | 3 | -9
14-3-3 Bad inh | 2 | -2 | 9 | -10 | 3
Thrombin inh | 0 | -2 | -3 | -7 | 0
Wee1 degr inh | 3 | -1 | -2 | 9 | 2
Hck Nef HTS | 6 | -45 | 1 | 18 | -1
Runt-SMMHC FRET | 18 | -18 | -5 | 0 | x

11. O=C(c1ccccc1)c1nn(-c2ccccc2)c(=O)cc1C(F)(F)F
12. Cc1oc(-c2ccc(-c3ccccc3)cc2)nc1CN(C)C1CCOC1 (stereo unspecified)
13. Cc1ccc(OCc2nnc(SCC(=O)Nc3ccc4c(c3)OCCO4)n2Cc2ccco2)cc1
14. COc1ccc(S(=O)(=O)n2nc(OCc3cccs3)cc2N)cc1
15. O=C(NCCCN1CCOCC1)c1ccc(CNS(=O)(=O)c2ccc(F)cc2)cc1

Assay by compound | 11 | 12 | 13 | 14 | 15
Runt-CBFb FRET | 1 | 0 | 12 | 1 | 1
KLK5 inh | -4 | x | 1 | 3 | 7
14-3-3 Bad inh | 13 | -19 | 5 | -4 | -1
Thrombin inh | 3 | -2 | 1 | -1 | 2
Wee1 degr inh | 0 | 0 | -1 | 2 | -1
Hck Nef HTS | 1 | 1 | 2 | -14 | 2
Runt-SMMHC FRET | -1 | 0 | 11 | -1 | -3

16. CSc1nc(-c2ccco2)nn1S(=O)(=O)c1ccc(C)cc1
17. O=C(Nc1nc(-c2ccccn2)cs1)c1ccc(Br)s1
18. O=C(c1ccc(COc2ccc(F)cc2)o1)n1cccn1
19. CN(C)c1cccc(C(=O)N/N=C/c2ccsc2)c1
20. Cc1ccc(/C=N/NC(=O)c2ccccn2)s1

Assay by compound | 16 | 17 | 18 | 19 | 20
Runt-CBFb FRET | 6 | 2 | -2 | 1 | 2
KLK5 inh | 0 | -250 | -15 | -8 | 1
14-3-3 Bad inh | -2 | 14 | 2 | -2 | 11
Thrombin inh | -3 | -4 | 12 | -2 | -5
Wee1 degr inh | 1 | 0 | 6 | 1 | 3
Hck Nef HTS | 2 | -20 | 0 | -6 | 2
Runt-SMMHC FRET | -1 | 4 | -5 | 1 | -7

21. O=C1CC(N2CCC(c3nc4ccccc4[nH]3)CC2)C(=O)N1Cc1ccccc1 (stereo unspecified)
22. COC(=O)C(C)NC(=O)C(C)NC(=O)OCc1ccccc1 (stereo unspecified)
23. COc1ccccc1CN(C)C(=O)C1(c2ccc(Cl)cc2)CC1
24. CCNC(=O)CC1C(=O)N(c2ccc(F)cc2)C(=S)N1CCc1ccncc1 (stereo unspecified)
25. CCOC(=O)c1cc(OC(=O)c2cccnc2)n(-c2ccccc2)n1

Assay by compound | 21 | 22 | 23 | 24 | 25
Runt-CBFb FRET | 0 | 0 | -3 | 2 | -1
KLK5 inh | -30 | -2 | -8 | x | 13
14-3-3 Bad inh | 14 | 4 | 2[fluorescence artefact?] | 18 | -2
Thrombin inh | -11 | -2 | -5 | -2 | 6
Wee1 degr inh | 3 | 1 | -2 | -2 | -1
Hck Nef HTS | 9 | -2 | 3 | 7 | 0
Runt-SMMHC FRET | -2 | -2 | 1 | -3 | -3

26. Nc1c(-c2ccc(Cl)cc2)cnn1C1CCS(=O)(=O)C1 (stereo unspecified)
27. CS(=O)(=O)N(CC(=O)N1CCOCC1)c1cccc([N+](=O)[O-])c1
28. Cc1cccc(-c2n[nH]c(=S)n2/N=C/c2ccc(C)o2)c1
29. Cc1ccc(NC(=O)c2[nH]cnc2C(=O)NN)cc1
30. C/C(=N\NC(=O)c1ccc(NS(=O)(=O)c2cccs2)cc1)c1ccccn1

Assay by compound | 26 | 27 | 28 | 29 | 30
Runt-CBFb FRET | 0 | 2 | 18 | 1 | 4
KLK5 inh | -17 | -5 | -25 | -6 | -22
14-3-3 Bad inh | -3 | 13 | -11 | -22 | -11
Thrombin inh | -15 | -4 | -1 | -4 | 1
Wee1 degr inh | 3 | 1 | -4 | 0 | 2
Hck Nef HTS | 5 | 14 | 3 | 15 | 4
Runt-SMMHC FRET | -2 | -1 | 15 | 2 | -1

31. CC1CN=C(N(Cc2ccccc2)C(=O)Nc2ccccc2)S1 (stereo unspecified)
32. COc1ccc(C(=O)N2CCC(n3c(C)nc4cc(F)ccc43)CC2)cc1
33. COC(=O)c1cnn(C(=O)c2ccccc2Br)c1N
34. COc1ccc(N=Cc2nc(-c3ccccc3)oc2OC(=O)c2ccccc2)cc1
35. Cc1nc2ccc(NC(=O)NCc3ccco3)cc2s1

Assay by compound | 31 | 32 | 33 | 34 | 35
Runt-CBFb FRET | 2 | -1 | 3 | -2 | -3
KLK5 inh | -23 | -11 | -10 | -2 | -18
14-3-3 Bad inh | -13[fluorescence artefact?] | 7 | -4 | 8 | 1
Thrombin inh | -11 | 4 | -3 | 6 | 12
Wee1 degr inh | -2 | 1 | -1 | -2 | 6
Hck Nef HTS | 5 | 3 | 1 | 8 | 6
Runt-SMMHC FRET | -1 | 0 | 3 | 3 | -1

# Complete entries, looked up by structure. Order of screens: Runt-CBFb FRET, KLK5 inh, 14-3-3 Bad inh, Thrombin inh, Wee1 degr inh, Hck Nef HTS, Runt-SMMHC FRET
# Results for `COc1ccc(N=Cc2nc(-c3ccccc3)oc2OC(=O)c2ccccc2)cc1` : -2, -2, 8, 6, -2, 8, 3
# Results for `CC1CN=C(N(Cc2ccccc2)C(=O)Nc2ccccc2)S1` (stereo unspecified) : 2, -23, -13[fluorescence artefact?], -11, -2, 5, -1
# Results for `COc1ccc(C(=O)N2CCC(n3c(C)nc4cc(F)ccc43)CC2)cc1` : -1, -11, 7, 4, 1, 3, 0
# Results for `Cc1nc2ccc(NC(=O)NCc3ccco3)cc2s1` : -3, -18, 1, 12, 6, 6, -1

# Later entries.
36. CCNC(=O)CC1C(=O)N(c2ccc(F)cc2)C(=O)N1Cc1ccccn1 (stereo unspecified)
37. Cc1cc([N+](=O)[O-])c(C)cc1-c1ccc(/C=N/NC(=O)c2cccnc2)o1
38. CCOC(=O)c1cnc(SCC)[nH]c1=O
39. O=C(NCc1ccc(F)cc1)C1CCN(C(=O)NCc2ccccc2)CC1
40. COc1nc(OC)nc(N2CCC(C(=O)NC3CCCCCC3)CC2)n1

Assay by compound | 36 | 37 | 38 | 39 | 40
Runt-CBFb FRET | -6 | 20 | 1&0 | 0 | 1
KLK5 inh | -4 | -7 | -5&1 | -18 | -2
14-3-3 Bad inh | -9 | -7 | -7&0 | -6 | -6[fluorescence artefact?]
Thrombin inh | -1 | 7 | 1 | 2 | 3
Wee1 degr inh | 0 | -3 | 1&0 | -2 | 1
Hck Nef HTS | 0 | 32 | -1&26 | -1 | 1
Runt-SMMHC FRET | 3 | 0 | -3&0 | -11 | 3

41. O=C(COC(=O)c1cc([N+](=O)[O-])ccc1NCCO)Nc1ccc2c(c1)OCO2
42. CC(/C=N/n1c(COc2ccccc2)n[nH]c1=S)=C\c1ccccc1
43. Clc1cccc(Nc2ncnc3c2cnn3-c2ccccc2)c1
44. Cc1nc2sc3c(c2c2nnc(SCC(=O)NCc4ccco4)n12)CCCC3
45. COCc1cc(=O)[nH]c(/N=C(\N)Nc2cccc(Cl)c2)n1

Assay by compound | 41 | 42 | 43 | 44 | 45
Runt-CBFb FRET | 4 | 6 | -2 | 2 | 0
KLK5 inh | x | -36 | -3 | 3 | 17
14-3-3 Bad inh | -10 | -8 | -2 | 15 | -6
Thrombin inh | -2 | -4 | -10 | 2 | x
Wee1 degr inh | -1 | 2 | x | -2 | 1
Hck Nef HTS | 8 | 1 | x | 0 | 9
Runt-SMMHC FRET | -2 | 0 | -6 | -42 | 2

46. Cc1ccccc1-c1cc(C(=O)n2cccn2)c2cc(Cl)ccc2n1
47. Cc1ccc(S(=O)(=O)N(C)C)cc1N
48. CCN(CC)S(=O)(=O)c1cc(C(=O)n2cccn2)c(Cl)cc1Cl
49. Cc1ccc(C)c(NC(=O)CCc2ccc(S(=O)(=O)NC3CCCCC3)cc2)c1
50. O=c1c2ccccc2nc(-c2ccccc2)n1CCN1CCOCC1

Assay by compound | 46 | 47 | 48 | 49 | 50
Runt-CBFb FRET | -2 | 1 | 1 | 1 | 2
KLK5 inh | 21 | 1 | 0 | -19 | 2
14-3-3 Bad inh | -5[fluorescence artefact?] | -3 | 2 | -14 | -5[fluorescence artefact?]
Thrombin inh | 32 | -7 | -3 | -9 | 1
Wee1 degr inh | -2 | 4 | 0 | 0 | 0
Hck Nef HTS | 1 | 9 | 0 | 2 | 1
Runt-SMMHC FRET | 2 | 0 | -1 | 0 | 0

51. CCn1c(CNC(=O)Cc2ccc(OC)cc2)nnc1SCCOc1ccccc1
52. COc1ccc(C2SCC(C(=O)O)N2C(C)=O)cc1 (stereo unspecified)
53. CCn1c(COc2cccc(C)c2)nnc1SCC(=O)Nc1cccc(C(=O)O)c1
54. COCc1cc(=O)[nH]c(/N=C(\N)Nc2ccc(C)cc2)n1
55. COc1ccc(C(=O)CSc2nnc(CNC(=O)c3ccc(OC)c(OC)c3)n2C)cc1
56. CCn1c2ccccc2c2cc(NC(=O)COC(=O)c3cccc(S(=O)(=O)NC)c3)ccc21
57. Cc1onc(-c2ccccc2)c1C(=O)n1cc(Br)cn1
58. COc1ccc(NC(=O)c2nc[nH]c2C(=O)N[C@@H](C)C(=O)OC(C)(C)C)cc1

Assay by compound | 51 | 52 | 53 | 54 | 55 | 56 | 57 | 58
Runt-CBFb FRET | -1 | -1 | -5 | -1 | 2 | -4 | 2 | 1
KLK5 inh | 1 | -22 | 4 | 1 | 2 | -15 | 17 | 4
14-3-3 Bad inh | -9[fluorescence artefact?] | 15[fluorescence artefact?] | 7[fluorescence artefact?] | -3 | 5 | 0[fluorescence artefact?] | 0 | -4
Thrombin inh | 3 | 1 | 6 | -7 | -2 | -6 | 11 | 3
Wee1 degr inh | -1 | -1 | 2 | -2 | 7 | 2 | -2 | x
Hck Nef HTS | -24 | -1 | 4 | 2 | -1 | 11 | -1 | 53*
Runt-SMMHC FRET | 0 | 0 | 8 | -1 | 1 | -2 | 6 | 5

# In the list so far, two have a CF3 group:
6. O=C(NCc1ccco1)c1nc2nc(-c3cccs3)cc(C(F)(F)F)n2n1
11. O=C(c1ccccc1)c1nn(-c2ccccc2)c(=O)cc1C(F)(F)F

Assay by compound | 6 | 11
Runt-CBFb FRET | 8 | 1
KLK5 inh | -295 | -4
14-3-3 Bad inh | 2 | 13
Thrombin inh | 0 | 3
Wee1 degr inh | 3 | 0
Hck Nef HTS | 6 | 1
Runt-SMMHC FRET | 18 | -1

# Source: PubChem
